Arbovirus anti: antivirals against arbovirus infection; actives 0.37% (n = 200,000); arbovirus infection cell-based antiviral screen; inhibition, % at 10 µM;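 active means inhibition from about 30%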;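 further: bluetongue infection of BSR cells; cell survival read as ATP light after 72 h; 0% = infected wells without compound and 100% = uninfected wells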
Mtb H37Rv: M. tuberculosis H37Rv growth inhibitors, H37Rv strain (AID 1626); M. tuberculosis H37Rv growth inhibition; higher % means a stronger effect; inhibition, % at 10 µM, or IC50 in µM where a hit was titrated; actives 0.95% (n = 220,000);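 active means confirmed in a dose series; inconclusive means inhibition above 80% but not taken into the dose series; inactive means below 80% or under 30% at every dose of the series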;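 further: bacteria incubated seven days before Alamar blue readout; 0% = bacteria only wells and 100% = bacteria with antibiotic wells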
Mtb bLac sens: beta-lactam sensitization of Mtb H37Rv; M. tuberculosis H37Rv growth with meropenem, percent inhibition; hits of this screen are not shown here; inhibition, % at 25 µM; actives 0.27% (n = 330,000);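 active means about 74% or more and at least 40 points above the plate without the antibiotic, then above 30% in a dose series; inconclusive means first-round hits that could not be retested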;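 further: growth measured after seven days incubation then overnight dye step; 0% = bacteria only wells and 100% = bacteria with antibiotic; twin plates without the antibiotic show which effects depend on it; some results filed as inactive read as strong as hits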
YopH PTP inh: blocks Yersinia enterocolitica YopH tyrosine phosphatase | fluorescence Ex485/Em525 | inhibition, %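 (about 10 µM by stock and volumes)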 | actives 0.16% (n = 140,000);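 active means inhibition of 50% or more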;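 further: controls were vehicle for no effect and minimum signal wells for full effect; inactives centre near -20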
RecA splice inh: inhibitors of M. tuberculosis RecA intein splicing. P9WHJ3. cell-free RecA intein splicing, fluorescence. inhibition, %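 (about 9 µM by stock and volumes)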. actives 0.75% (n = 290,000). AID 2221; in the data active means inhibition above about 30%; inconclusive means no clear call, values can overlap the other calls;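 further: 0% = vehicle wells and 100% = reference inhibitor control wells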
Target sequence (P9WHJ3 whole entry, looked up, canonical isoform): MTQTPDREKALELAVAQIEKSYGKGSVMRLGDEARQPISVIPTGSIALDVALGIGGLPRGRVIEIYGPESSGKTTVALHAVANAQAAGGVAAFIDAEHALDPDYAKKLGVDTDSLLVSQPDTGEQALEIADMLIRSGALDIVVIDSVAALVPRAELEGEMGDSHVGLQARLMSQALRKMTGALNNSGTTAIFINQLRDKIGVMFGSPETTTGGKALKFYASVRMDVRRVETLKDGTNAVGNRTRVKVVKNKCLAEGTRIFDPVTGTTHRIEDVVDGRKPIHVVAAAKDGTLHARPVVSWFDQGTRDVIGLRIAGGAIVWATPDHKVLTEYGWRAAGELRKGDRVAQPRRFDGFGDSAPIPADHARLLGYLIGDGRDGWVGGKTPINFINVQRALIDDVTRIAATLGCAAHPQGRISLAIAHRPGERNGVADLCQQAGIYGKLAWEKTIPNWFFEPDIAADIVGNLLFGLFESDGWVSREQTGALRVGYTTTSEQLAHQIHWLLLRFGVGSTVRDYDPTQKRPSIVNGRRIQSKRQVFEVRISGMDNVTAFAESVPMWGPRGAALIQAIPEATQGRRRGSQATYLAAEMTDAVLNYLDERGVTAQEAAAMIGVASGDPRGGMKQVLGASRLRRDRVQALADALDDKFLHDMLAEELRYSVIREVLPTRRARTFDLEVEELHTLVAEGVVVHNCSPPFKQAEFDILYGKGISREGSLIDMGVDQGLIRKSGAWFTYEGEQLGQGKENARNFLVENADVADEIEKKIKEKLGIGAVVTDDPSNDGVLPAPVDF
Numbers without * were called inactive; ? = inconclusive; · = no result given.

SMILES	Arbovirus anti	Mtb H37Rv	Mtb bLac sens	YopH PTP inh	RecA splice inh
O=C(CCc1nc2cccnc2n1Cc1ccccc1)NCCc1ccc(Cl)cc1	-2	-9%	-7	6	2.4
CCOc1ccc(C(=O)OC(C)CN2CCN(C)CC2)cc1 (stereo not given)	·	·	-9	·	-2.0
O=C(C/C=N/OCc1ccc(Cl)cc1Cl)c1ccccc1	2	8%	-9	-54	4.0
CSc1cccc(NC(=S)N(Cc2ccc(C)cc2)Cc2cccnc2)c1	5	13%	5	·	16
Cc1nc(N2CCCCC2)c2c(C)c(C(=O)Nc3ccccc3C(F)(F)F)sc2n1	14	1%	68	·	2.7
O=S(=O)(Cc1ccccc1)Nc1ccc(S(=O)(=O)N2CCCC2)cc1	·	-5%	-12	·	-1.9
COC(=O)C1=C(C(=O)OC)C(c2ccccc2O)c2sc(=O)[nH]c2S1 (stereo not given)	-8	3%	11	-21	-23
Cc1ccc(NC(=O)COC(=O)CCn2c(C)csc2=O)cc1S(=O)(=O)N1CCOCC1	·	·	-5	·	-1.1
CCCCn1c(=O)[nH]c(=O)c2c1nc(-c1ccccc1F)n2Cc1ccccc1	-13	12%	0	·	5.1
O=C(O)C1CCCCC1C(=O)NCCc1ccccc1 (stereo not given)	7	-7%	-19	-1	-1.7
Cc1cc(NC(=O)C(=O)NCc2cccc(Cl)c2)no1	·	8%	-9	·	0.6
Cc1ccc(/C=C/C(=O)Nc2ccc(S(=O)(=O)Nc3onc(C)c3C)cc2)cc1	·	·	1	·	-1.3
COc1ccccc1CNCc1ccc(C)cc1	·	·	-2	·	1.6
Cc1ccc(C(=O)OCC(=O)NCc2cccs2)cc1C	-2	2%	-5	·	-3.1
COc1ccccc1NS(=O)(=O)c1ccc(C(=O)N2CCN(c3ccccc3O)CC2)cc1	·	·	2	·	-1.0
CCOc1cc(C(=O)OCC(=O)c2c(C)[nH]c3ccccc23)ccc1OCC(=O)N1CCOCC1	2	-9%	5	-19	-2.6
COc1ccccc1NS(=O)(=O)c1cc([N+](=O)[O-])ccc1N/N=C/c1sc(N2CCOCC2)nc1-c1ccccc1	10	54%	3	-10	-0.3
Nc1nc(Sc2ccc(C(F)(F)F)cn2)n[nH]1	3	5%	-1	6	-1.9
CN(Cc1ccccc1)C(=O)COc1ccc(Br)cc1Cl	·	9%	0	·	3.7
CC(/C=N/NC(=O)Cn1cnc2ccccc21)=C\c1ccccc1	3	5%	4	-24	1.0
Cn1cnc(CCN)c1	·	-8%	3	·	-1.8
CC(=O)N1CCN(C(=O)CNc2cc(C(F)(F)F)ccc2OCC(F)(F)F)CC1	-4	5%	-11	-24	-0.5
COc1cccc(C(=O)Nc2c[nH]c(=O)[nH]c2=O)c1	·	-9%	-6	·	0.3
N#Cc1cccc(NC(=O)COc2ccc(-n3ccnc3)cc2)c1	-14	-5%	10	-26	-0.1
Cc1nnc2ccc(Oc3ccc(-c4ccccc4)cc3)nn12	17	-2%	89	-13	3.4
CCOc1ccc(/C=N/Nc2nc(=O)[nH]nc2C)cc1OC	-6	2%	3	·	-5.6
C/C(=N\Nc1ncc(Cl)cc1Cl)c1ccc(OC(F)F)cc1	-13	74%	1	-32	-1.5
O=C(CCc1nnc2ccc(N3CCCC3)nn12)Nc1ccc(F)cc1F	·	·	-3	·	3.7
COc1ccc(/C=N/NC(=O)c2ccc3nc[nH]c3c2)cc1	·	-5%	-5	·	-1.0
O=C(/C=C/c1cccs1)Nc1ccc([N+](=O)[O-])cc1	1	4%	68	-29	4.6
CCSC1=N/C(=C\c2ccc(OC)cc2)C(=O)N1	-21	5%	8	-2	-2.1
CCCc1cc(=O)oc2cc(C)cc(OCC(=O)NC(Cc3c[nH]c4ccc(O)cc34)C(=O)O)c12 (stereo not given)	·	·	-2	·	-6.4
CCCCc1c(C)nc2ccccc2c1SCCC#N	27	2%	-1	-20	5.5
CCc1c(C)nc(SCC(=O)c2cccs2)c(C#N)c1C	-7	6%	4	-13	4.7
COc1ccc(CN2C(=O)CC(=O)NC2=S)cc1	-1	-5%	7	·	0.9
CSc1ccccc1C(=O)C1CCCN(C(=O)c2ccc(N3CCOCC3)cc2)C1 (stereo not given)	-2	-2%	-1	·	1.2
O=C(NC1CCN(C(=O)NC2CCCCC2)CC1)c1ccco1	-2	-18%	?	-31	4.0
O=c1cc2c(nn1Cc1cccc(Cl)c1)-c1ccccc1CC2	-1	16%	1	2	-0.4
COc1ccc(C2Sc3nncn3N2Cc2ccc(C#N)cc2)cc1 (stereo not given)	0	-4%	-18	-39	0.4
COc1ccc([C@H]2/C=C\CN(C(=O)[C@H](Cc3ccccc3)NC(=O)OCC3c4ccccc4-c4ccccc43)CC(=O)N2Cc2ccc(F)cc2)cc1	·	3%	-8	·	0.8
O=C(CSc1nc2ccccc2n1CCc1ccccc1)NC1CCS(=O)(=O)C1 (stereo not given)	-10	-6%	-2	-10	4.2
CN(C)c1ccc(P(=O)(OC2CCCCC2)C(O)c2cccnc2)cc1 (stereo not given)	17	-2%	10	10	1.7
O=C(N/N=C/c1ccc2c(c1)OCO2)/C(=C/c1ccc2c(c1)OCO2)NC(=O)c1ccccc1	-10	·	16	-28	-1.0
COc1ccccc1Oc1c(C)oc2cc(OC(=O)N(C)C)ccc2c1=O	·	·	5	·	1.0
COc1ccccc1N(C)S(=O)(=O)c1ccc(C(=O)N2CCCC(C(F)(F)F)C2)cc1 (stereo not given)	·	·	-1	·	2.9
Cc1ccc(CNC(=O)c2ccc(N3CCC4(CC3)CC(c3ccccc3)=NO4)c(NC(=O)c3c(Cl)cccc3Cl)c2)cc1	·	·	-5	·	-0.8
CCOC(=O)c1ccc(NC(=S)NNC(C)(C)C)cc1	·	?	95	·	-3.6
COc1ccc(NC(=O)CN2C(=O)/C(=C3\SC(=S)N(C4CCS(=O)(=O)C4)C3=O)c3ccccc32)cc1 (stereo not given)	·	-5%	40	·	-0.1
Cc1ccc(C(=O)Nc2ccc(NC(=O)c3cccs3)cc2)cc1[N+](=O)[O-]	-11	1%	-6	·	·
COc1cc(C(=O)NC(=S)Nc2ccc3c(c2)C(=O)N(C)C3=O)cc(OC)c1OC	4	-1%	3	-25	3.2

Next section.
SMILES	Arbovirus anti	Mtb H37Rv	Mtb bLac sens	YopH PTP inh	RecA splice inh
CCOC(=O)c1c(C)n(C)c2ccc(OCC(O)Cn3nc(C)c(Br)c3C)cc12 (stereo not given)	-21	1%	49	18	-1.6
Cc1ccc(-c2csc(/C(C#N)=C/Nc3ccccc3SC(F)(F)F)n2)c(C)c1	8	-7%	7	-37	0.3
CC(=O)c1ccc(NC(=O)C2Cc3ccccc3CN2C(=O)c2ccccc2)cc1 (stereo not given)	2	12%	-2	-20	4.5
Cc1ccc(NC(=O)C2CCCN2C(=O)OCc2ccccc2)cc1C (stereo not given)	·	·	-7	·	2.3
O=C1c2ccccc2C(=O)c2c1cccc2N1CCOCC1	-8	·	6	-25	6.6
O=[N+]([O-])c1ccc(/C=N/Nc2cc(Cl)nc(-c3ccccc3)n2)cc1	2	·	-3	-4	-0.9
Cc1cnc(C(=O)OCC(=O)Nc2cc(-c3ccccc3)nn2-c2ccccc2)cn1	·	·	-12	·	7.3
O=C(Nc1ccc(N2CCN(C(=O)c3ccc(Cl)cc3)CC2)cc1)c1cc2ccccc2o1	1	-12%	-6	2	-1.0
COc1ccccc1N1CC(C)(C)C(=O)N(C(=O)c2ccc(Cl)cc2)C1=S	·	-11%	-2	·	4.6
CCOCCCNc1nc2c(-c3ccccc3)nnn2c2ccccc12	-1	·	11	-34	-35
CCC(=O)N1N=C(c2cccs2)CC1c1ccc(C)cc1 (stereo not given)	·	·	0	·	1.5
O=C(CCc1ccc(O)cc1)N/N=C/c1coc2ccccc2c1=O	·	-3%	8	·	1.8
CCOC(=O)C1CCCCN1Cc1ccc(C(F)(F)F)cc1 (stereo not given)	4	4%	-9	-25	-1.6
CC(OC(=O)Cn1cnc2c1c(=O)n(C)c(=O)n2C)C(=O)NCc1ccccc1 (stereo not given)	·	·	2	·	-1.8
CCc1ccccc1NC(=O)c1cnccn1	-5	-3%	·	-39	1.7
O=C(CNC(=O)c1ccc(Cl)cc1)NCC(F)(F)F	1	-12%	-2	-36	-0.9
CCOc1cc(/C=N/O)ccc1OCc1ccc([N+](=O)[O-])cc1	2	13%	17	-18	-1.3
CCCn1c(SCC(=O)Nc2nnc(-c3ccccc3)s2)nnc1-c1ccccn1	20	11%	-6	-25	1.9
COc1ccc(/C=N/NC(C)(C)C)c(OC)c1	15	-10%	8	·	-0.6
Cc1nc2scc(C)n2c(=O)c1S(=O)(=O)NCc1ccccc1Cl	·	·	-3	·	-1.2
Cn1cccc1/C=C1\SC(=O)N(c2ccc(O)cc2)C1=O	-1	0%	-10	-13	-16
CCc1cccc(NC(=O)c2cnn(-c3ccccc3)c2C)c1	·	·	5	·	6.2
O=C(NN1C(=O)C2C3C=CC([C@H]4CC34)[C@@H]2C1=O)c1ccc(Br)cc1 (stereo not given in full)	·	-3%	-14	·	0.2
COC(=O)C1(C)NC(c2ccc(F)cc2)C2C(=O)N(c3ccc(C)cc3)C(=O)C21 (stereo not given)	·	·	-15	·	-1.8
CC(C)N(Cc1ccccc1)C(=O)CCc1ccccc1	2	2%	-3	·	1.1

Compound activity from PubChem.

These rows are one share of the data; count on the stated rates, not on these rows.
